# VACV Venus inh – vaccinia inhibition (Venus reporter); Vaccinia virus Venus reporter expression, fluorescence; Potency, µM (top dose mostly 36.5 µM), without a hit: top-dose activity change, negative = inhibition, hits mostly inhibitors; hit rate 0.46% among 330,000; active means well fitted inhibition curve with a large enough effect; inconclusive means small, poorly fitted or top-dose-only effect; inactive means no such curve, though single readings can be large or run the other way; tested in A549 cells; further: nearly all actives have a fitted effect of over 30% in size; inactives centre near -10
# VACV mCherry inh – inhibitors of vaccinia virus infection (mCherry reporter signal) | Potency, µM (top dose mostly 36.5 µM), for the others: top-dose activity change, negative = inhibition, actives largely listed as inhibitors | hit rate 0.63% among 310,000 | Vaccinia virus mCherry reporter infection, fluorescence; about a quarter of the inactives have no number; active = well fitted inhibition curve with a large enough effect; inconclusive = small, poorly fitted or top-dose-only effect; inactive = no such curve, though single readings can be large or run the other way; tested in A549 cells; further: nearly all actives have a fitted effect of over 35% in size; inactives centre near -10
# Starred values were filed as active, the others as inactive; i = inactive; u = inconclusive; x = no result given; & = joins results of further samples; [ ] = another dose, or the depositor's remark. On the % scale 0 is the no-effect control and ±100 the full control effect; potency means the concentration at half of the fitted maximal effect.
# Fields: VACV Venus inh	VACV mCherry inh
COc1ccc(/C=C(/NC(=O)c2ccccc2)c2nc3ccccc3[nH]2)cc1OC
 : -20.8%	-19.8%
Cc1ccc2cc(/C=C3\N=C(c4ccccc4)OC3=O)c(N3CCOCC3)nc2c1
 : -5.0%	-2.0%
Cc1ccc(-n2c(C)nc3c(cnn3-c3ccccc3C)c2=O)cc1F
 : 2.5%	-1.0%
Cc1ccc(CSC2=Nc3ccccc3C3=NC(CC(=O)NC4CCCCC4)C(=O)N23)cc1 (configuration not stated)
 : -12.5%	-17.8%
Cc1ccc(S(=O)(=O)N2CCN(C(=O)COC(=O)CCOc3ccccc3C)CC2)cc1
 : -9.7%	-13.9%
COc1ccc(S(=O)(=O)N2CCC(c3nc4ccccc4s3)CC2)cc1OC
 : -11.6%	-2.2%
C/[N+]([O-])=C\c1coc2ccccc2c1=O
 : 0.0%	x
CCNC(=O)CN(c1ccc(Br)c(C)c1)S(C)(=O)=O
 : -2.8%	-8.1%
CCOC(=O)CSc1nnc(CNC(=O)c2ccc(S(=O)(=O)N3CCOCC3)cc2)n1C
 : -11.8%	i
c1ccc(N2CCN(c3nc(NCc4ccco4)c4ccccc4n3)CC2)cc1
 : u	x
CC(=O)N(C(C)=O)N1C(=O)C2C3c4ccccc4C(c4ccccc43)C2C1=O (configuration not stated)
 : u	-17.3%
CNC(=O)c1c(O)c2cccc3c2n(c1=O)CCC3
 : -10.5%	-20.2%
COc1ccc(NS(=O)(=O)c2cccc(C(=O)NNC(=O)c3cccc(NC(C)=O)c3)c2)cc1
 : -17.2%	i
COc1ccc(C(C(=O)NC(C)(C)C)N(C(=O)CCC(=O)Nc2cc(C)on2)c2cc(C)cc(C)c2)cc1 (configuration not stated)
 : -15.3%	-15.7%
Cn1c(=O)c2c(nc(NCCc3ccccc3)n2Cc2cccc(Br)c2)n(C)c1=O
 : -12.2%	-26.6%
COc1ccccc1/C=C/C(=O)OCCN1CCOCC1
 : -4.7%	-11.6%
O=c1c2ccccc2[nH]c(=S)n1CC1CCCO1 (configuration not stated)
 : -18.6%	x
OCCCNCc1ccc(N(c2ccccc2)c2ccccc2)cc1
 : -13.3%	i
O=C(c1cccs1)N1CCCc2cc(NS(=O)(=O)c3ccc(F)cc3F)ccc21
 : -12.0%	-2.8%
COc1ccc(Oc2c(C)nc(SCC(=O)c3ccc(Cl)cc3)[nH]c2=O)cc1
 : -4.9%[7.34 µM]	-11.5%[7.34 µM]

# Single entries from above.
# OCCCNCc1ccc(N(c2ccccc2)c2ccccc2)cc1 in VACV Venus inh = -13.3%
# Cn1c(=O)c2c(nc(NCCc3ccccc3)n2Cc2cccc(Br)c2)n(C)c1=O in VACV Venus inh = -12.2%
# COc1ccc(Oc2c(C)nc(SCC(=O)c3ccc(Cl)cc3)[nH]c2=O)cc1 in VACV mCherry inh = -11.5%[7.34 µM]

# New compounds follow:
# Fields: VACV Venus inh	VACV mCherry inh
Cc1ccc(CS(=O)(=O)c2nsc(C)c2C#N)cc1
 : -17.8%	i
Fc1ccc(C2c3cccn3CCN2C(=S)Nc2cccc(Br)c2)cc1 (configuration not stated)
 : -19.2%	u
CN(C)C(=O)CCc1ccc2c3c([nH]c2c1)[C@]1(CCc2ccccc2)[C@@H](C(=O)N2CCCCC2)C[C@H](CC(=O)NCc2ccco2)C(=O)N1CC3
 : u	-4.4%
C[C@H](CO)N1C[C@H](C)[C@@H](CN(C)C(=O)Nc2ccc(F)cc2)Oc2ncc(-c3ccc(F)cc3)cc2C1=O
 : -11.8%	-14.4%
O=C1CSC(c2ccccc2)N1Cc1ccccn1 (configuration not stated)
 : -10.0%	-9.1%
CC(O)CNCCOc1ccccc1OCc1ccccc1 (configuration not stated)
 : -17.0%	-8.5%
CC(=O)Nc1cc(-c2ccncc2)cn2c(-c3ccccc3)cnc12
 : -8.8%	-13.3%
CCCCCC(=O)Nc1ccc(-c2cn3cccnc3n2)cc1
 : -4.9%	-2.3%
CC/C(=N\NC(=O)c1cc(C)nc2ccccc12)c1ccc(C)s1
 : -12.6%	u
CCC1CCCCN1C(=O)CSc1nc(N)c(NC(=O)c2ccco2)c(=O)[nH]1 (configuration not stated)
 : -0.4%	8.5%
Cc1cc(C)n(-c2ccc(C(=O)NC3CCCCC3)cc2)n1
 : 7.9%	-19.2%
Cc1ccc(NC(=O)c2nc[nH]c2C(=O)N[C@@H](C)c2ccccc2)cc1
 : u	-26.2%
N#C/C(=C1/CCCCCN1)c1nc2ccccc2[nH]1
 : 4.4%	-8.0%
Cc1ccc(S(=O)(=O)N2[C@@H](c3ccc(C(C)(C)C)cc3)C(C(=O)O)=CC[C@H]2c2cccs2)cc1
 : -17.7%	-18.0%
COc1cc(O)c(C=Nc2ccccc2NS(=O)(=O)c2ccc(C)cc2)c(OC)c1
 : -16.5%	i
Cc1ccc(C(C)C)c(OCC(=O)Nc2sc3c(c2C#N)CC(C)(C)NC3(C)C)c1
 : -10.3%	i
COc1ccc(Cn2ccc3nc(C)c(C(=O)Nc4cc(OC)c(OC)c(OC)c4)cc3c2=O)cc1
 : 6.6%	-7.1%
CC(C)(C)c1nc(CN2CCOCC2)cc(CN2CCOCC2)c1O
 : 2.3%	-9.2%
CCC(C)c1ccccc1NC(=O)CN(C)CCOc1ccc(Cl)cc1 (configuration not stated)
 : -7.9%	u
CN(CC(=O)Nc1ccccc1Cl)C(=O)Cn1cnc2ccc(Cl)cc2c1=O
 : -16.6%	i
C=CCNC(=O)c1ccc(CSc2nc3ccccc3s2)cc1
 : -1.8%	-21.5%
Cc1ccc(C(=O)N/C(=C/c2ccco2)C(=O)N2CCCCC2)cc1
 : 0.0%	-0.5%
CCc1ccc(NC(=O)COC(=O)Cn2cnc3ccccc32)cc1
 : -3.5%	-10.5%
CC(C)(C)n1nnnc1C(c1ccccc1)N1CCN(CCN2CCOCC2)CC1 (configuration not stated)
 : 0.1%	28.3%
CCCCOCCCNC(=O)C[C@@H]1C[C@@]2(C(=O)OC)CCCCC=C2N(Cc2ccc(Cl)cc2Cl)C1=O
 : -9.6%	10.0%
CN(Cc1ccccc1)C(=O)c1cccc(NC(=O)Cc2ccc([N+](=O)[O-])cc2)c1
 : u	u
CC(=O)Nc1ccc(NC(=O)COC(=O)CCCc2c[nH]c3ccccc23)cc1
 : -0.4%	i
Cc1nnc(NC(=O)c2ccc(S(=O)(=O)N(C)Cc3ccccc3)cc2)o1
 : -21.9%	-14.9%
O=C(OCC(=O)N1CCCC1=O)c1ccc(O)cc1O
 : -6.5%	-9.4%
COCCn1nnnc1C(c1cccc(C#N)c1)N1CCCCCC1 (configuration not stated)
 : -10.4%	-5.5%
Cc1cccc(C)c1NC(=O)CN1CCN(C(=O)CN2C(=O)NC3(CCCCC3C)C2=O)CC1 (configuration not stated)
 : -14.7%	-2.9%
BrC(=C\c1ccccc1)/C=N/N1CCN(c2ccccc2)CC1
 : -16.7%	-43.0%
COc1cccc(C(=O)C2CCCN(C(=O)c3ccccc3Cl)C2)c1 (configuration not stated)
 : -8.7%	-25.9%
COc1ccc(-c2ccc(C(=O)N3CCc4c(cnc(C)c4CNS(=O)(=O)N(C)C)C3)o2)cc1
 : -6.9%	-15.0%
Cc1ccc(-n2ccnc2SCC(=O)O)c(C)c1
 : -15.1%	-20.0%
CC1CCN(S(=O)(=O)c2ccc(C(=O)Nc3ncccc3O)cc2)CC1
 : -8.0%	-15.3%
c1ccc(CNc2nc(-c3ccccn3)nc3ccccc23)cc1
 : -22.1%	u
COc1ccc(N2CC(NC(=O)/C=C\c3ccc4c(c3)OCO4)CC2=O)cc1OC (configuration not stated)
 : -4.2%	4.7%
COc1cccc(C(=O)SC2=NCCS2)c1
 : -21.2%	-5.7%
COc1ccc(C(=O)C[n+]2ccccc2Cl)cc1
 : -5.1%	-14.4%
Nc1ncnc2c1ncn2[C@@H]1O[C@H](C(=O)N2CCN(Cc3ccccn3)CC2)[C@@H](O)[C@H]1O
 : 1.0%	25.4%
O=C1NC(=O)C(c2ccc(F)cc2)N1 (configuration not stated)
 : -3.4%	-14.4%
O=C1NC(=O)C(=O)N1
 : -8.3%	i
Cc1ccc(CNC(=O)CC2Sc3ccccc3NC2=O)cc1 (configuration not stated)
 : 8.0%	i
CC1CCN(C(=O)NC(=O)c2ccc(Cl)cc2)CC1
 : 7.2%	-5.8%
CC(C)=NOC(=O)c1c(C)noc1-c1snnc1C
 : -12.8%[7.34 µM]	i[7.34 µM]
COc1ccccc1N(CC(=O)NCCSc1ccccc1)S(C)(=O)=O
 : -10.8%	i
COc1ccccc1NC(=O)N1CCOCC1
 : -6.9%	-0.4%
O=C(NCCS(=O)(=O)N1CCN(c2ccccc2F)CC1)C1CC(=O)N(c2ccccc2)C1 (configuration not stated)
 : -8.6%	-15.9%
COc1ccc(C=O)cc1Cn1cnc2c(cnn2C)c1=O
 : 0.4%	-5.1%

# (further entries)
# Fields: VACV Venus inh	VACV mCherry inh
Cc1cc(C)c(NC(=O)CCCN2C(=O)COc3ccc(C)cc32)c(C)c1
 : -16.1%	-7.0%
Cc1ccc(S(=O)(=O)NC(CC(=O)n2nc(C)cc2C)c2ccccc2)cc1 (configuration not stated)
 : -23.1%	x
Cc1cc(C)c(NC(=O)CSc2nc3ncc(Br)cc3[nH]2)c(C)c1
 : -8.7%[7.34 µM]	i[7.34 µM]
COc1ccc(N/C=C(\C(C)=O)c2ccc(OC)c(OC)c2)cc1OC
 : -3.0%	4.5%
O=C(CN(C(=O)CSc1nc2ccccc2o1)c1ccccc1)NC1CCCCC1
 : 4.9%	-21.9%
COc1ccc(C(C)C)cc1S(=O)(=O)Nc1ccncc1
 : 5.3%	5.2%
CCOc1ccccc1NC(=O)C1CCN(C(=O)c2cccs2)CC1
 : -14.1%	u
Cc1cccc(OCC(O)CN2CCN(C3CCCCC3)CC2)c1 (configuration not stated)
 : -19.3%	x
Nc1ccc2cccc(O)c2c1
 : -12.6%	u
CCN(CC)S(=O)(=O)c1ccc(O)c(C(=O)OCC(=O)N2CCCc3ccccc32)c1
 : -17.4%	-17.1%
CCOc1cccc(CN2CCCC(N3CCc4ccccc4C3)C2)c1O (configuration not stated)
 : -4.0%	u
COc1ccc(C2/C(=C(/O)c3ccc4c(c3)CC(C)O4)C(=O)C(=O)N2CCCN2CCOCC2)cc1OC (configuration not stated)
 : -2.4%	i
COc1ccc(CCN2CC(C(=O)OCC(=O)c3c(N)n(CC(C)C)c(=O)n(C)c3=O)CC2=O)cc1OC (configuration not stated)
 : -20.9%	u
CCNC(=O)C(=O)NCc1ccncc1
 : -10.3%	-2.4%
CC(=O)NNC(=S)NC(=O)c1cccc([N+](=O)[O-])c1
 : -15.2%	-17.6%
Cc1ccc(OCC(=O)Nc2ccc(O)c(C(=O)O)c2)cc1C
 : -17.0%	-11.2%
CCCCNC(=O)c1ccc(CNc2c(N3CCC(C(=O)OCC)CC3)c(=O)c2=O)cc1
 : -4.9%	i
O=C(COC(=O)c1cc([N+](=O)[O-])ccc1NCCO)Nc1ccc2c(c1)OCO2
 : -4.7%	-14.5%
CC(=O)/C(N=Nc1ccc(OC(F)(F)F)cc1)=C(\C)O
 : 4.7%	-8.3%
O=C(CN1CCN(S(=O)(=O)c2ccc(F)c(Cl)c2)CC1)N1CCc2ccccc2C1
 : -24.8%	-14.9%
CCCC(c1nnnn1Cc1ccc(F)cc1)N1CCN(CC)CC1 (configuration not stated)
 : -10.4%	i
c1csc(-c2ccc3ccccc3n2)c1
 : -11.5%	x
Cc1ccccc1C(=O)Oc1c(Sc2ccccc2)c(C)nn1C(C)(C)C
 : -8.2%	-20.4%
Cc1cccc(-n2nnnc2SCC(=O)c2cc(C)n(CC3CCCO3)c2C)c1 (configuration not stated)
 : -10.7%	-18.7%
CCC(C)NC(=O)Cn1c(=O)n(CCCC(=O)NCc2ccc(C)cc2)c(=O)c2ccccc21 (configuration not stated)
 : 0.2%	2.6%
CCc1nc2nc(C)cc(Nc3ccc(F)c(Cl)c3)n2n1
 : -24.5%	u
CC(C)c1ccc(NC(=O)CSc2nc(=O)[nH]c3c2CCCC3)cc1
 : -16.3%	-8.7%
O=S(=O)(O)c1nc2ccccc2n1Cc1ccc(Cl)cc1Cl
 : -17.3%	x
CCN1CCSc2ccc(C(=O)NCc3cccc(Br)c3)cc21
 : -11.2%&-20.0%	18.1%&-20.7%
Cc1cc(C)nc(Oc2ccc([N+](=O)[O-])cc2)n1
 : -8.3%	i
CCOC(=O)c1c(C)nc(-c2ccccc2)nc1NC(C)=O
 : -2.0%	x
COC(=O)c1cc(NC(=O)CC2C(=O)NCCN2C(=O)c2ccccc2)cc(C(=O)OC)c1 (configuration not stated)
 : -19.2%	x
COc1ccccc1C(=O)N[C@@H]1c2ccccc2C2(CCN(C(=O)c3csnn3)CC2)[C@H]1OC
 : 9.0%	-8.4%
Cc1ccc(C)c(CNS(=O)(=O)c2ccc3c(c2)C(C)(C)C(=O)N3C)c1
 : -10.5%	-12.5%
O=C1C(CN2CCCC2)CCCC1CN1CCCC1 (configuration not stated)
 : 0.5%	i
CC1(C(=O)NS(=O)(=O)C2CC2)CCCN(C(=O)c2cccnc2Oc2ccccc2)C1 (configuration not stated)
 : 4.4%	i
CC(CN1CCCCC1)OC(=O)c1ccc2c(c1)OCCO2 (configuration not stated)
 : -4.5%	i
COc1cccc(NC(=O)C2CCCN2C(=O)Nc2ccccc2)c1 (configuration not stated)
 : 0.9%	-9.4%
CC(Oc1cccc2cccnc12)C(=O)N/N=C/c1ccc2c(c1)OCO2 (configuration not stated)
 : -13.8%	16.0%
Cc1ccccc1OCC(=O)Nc1ccc2c(c1)C(=O)N(CCC(=O)O)C2=O
 : -5.6%	-11.7%
